TRPV1 potentiator – HTS Assay for Compounds that Act as Potentiators of the Vanilloid Receptor 1; Transient receptor potential cation channel subfamily V member 1 (Homo sapiens), Q8NER1; TRPV1-expressing cells, Fluo-8 calcium influx, capsaicin EC20 potentiation; host cell line not named in the record; control for the full effect not named in the record; potentiation, % at 8.33 µM; hit rate 0.02% among 320,000; active means potentiation above 80%; inconclusive means 30% to 80%; inactive means below 30%; note: 0% is about no effect
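Cells expressing TRPV1 were dye-loaded with Fluo-8 and read kinetically: 10 s baseline, 3 min after compound (agonist portion), then 2 min after EC20 capsaicin (allosteric enhancer portion). Calcium-bound dye fluorescence at 480/520 nm.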
Menin MLL FP FL – qHTS Assay for Inhibitors Targeting the Menin-MLL Interaction in MLL Related Leukemias: Competition With Fluorescein Labeled MLL-derived Peptide; Fluorescence polarization, fluorescein-MLL peptide displacement from menin; FP activity change, % at 61.4 µM; 290,000 tested, under 10 active; inconclusive = falling polarisation curve, or a change in total fluorescence; inactive = total fluorescence flat and polarisation flat or rising; no compound was filed as active; the % refers to the polarisation; negative = inhibition;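 note: % of control where 0% means no effect; inhibitors lower the polarisation; unlabelled MLL peptide was the positive control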
TRPML1 blocker – qHTS for Inhibitors of the Human Mucolipin Transient Receptor Potential 1 (TRPML1) | Mucolipin-1 (Homo sapiens), Q9GZU1 | TRPML1-inducible cells, Ca2+ dye fluorescence, FDSS; stronger effect = lower value; inhibition of EC80 agonist-evoked calcium signal | activity change, negative = inhibition, % (no concentration beside the values) | hit rate 0.02% among 390,000 | AID 624415, 2012; in the data active means activity change below about -50%; inconclusive means about -30% to -50%; inactive means above about -30%;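 note: stimulus is agonist 54-4 at its EC80 concentration; % is set by controls: 0 for no effect and ±100 for the full control effect; compound concentration not given in the record; the text of the record puts the active cut at -80%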
Target sequence (Q9GZU1 whole entry, looked up): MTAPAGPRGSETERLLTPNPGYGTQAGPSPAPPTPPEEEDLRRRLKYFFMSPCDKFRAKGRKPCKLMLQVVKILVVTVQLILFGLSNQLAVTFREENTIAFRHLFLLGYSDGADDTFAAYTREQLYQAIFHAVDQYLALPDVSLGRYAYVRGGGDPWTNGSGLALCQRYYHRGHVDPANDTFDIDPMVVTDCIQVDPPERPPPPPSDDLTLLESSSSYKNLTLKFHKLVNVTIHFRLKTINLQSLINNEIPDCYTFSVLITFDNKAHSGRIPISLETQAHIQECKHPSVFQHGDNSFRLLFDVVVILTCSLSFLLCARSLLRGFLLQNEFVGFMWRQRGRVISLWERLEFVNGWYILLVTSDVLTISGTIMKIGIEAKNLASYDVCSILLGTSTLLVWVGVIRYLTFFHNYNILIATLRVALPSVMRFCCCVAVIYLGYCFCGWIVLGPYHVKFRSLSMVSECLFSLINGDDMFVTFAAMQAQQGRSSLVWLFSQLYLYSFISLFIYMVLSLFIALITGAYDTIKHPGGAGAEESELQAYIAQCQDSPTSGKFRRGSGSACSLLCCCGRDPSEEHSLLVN
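TRPML1-DL cells, Tet-induced overnight (~16 h, 37 °C) at 1,500 cells/well, were loaded with Ca8 no-wash dye plus quencher for 45-90 min at room temperature. Compounds were pinned during FDSS kinetic reading; agonist 54-4 at EC80 (4 uM final) then added.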
Sfp PPTase inh – qHTS Assay for Inhibitors of Bacillus subtilis Sfp phosphopantetheinyl transferase (PPTase). 4'-phosphopantetheinyl transferase ffp (Bacillus subtilis), Q9F4F7. Biochemical Sfp PPTase activity, qHTS. Potency, µM, without a hit: max response, negative = inhibition, actives largely listed as inhibitors. hit rate 3.5% among 310,000; active = well fitted inhibition curve with a large enough effect; inconclusive = small, poorly fitted or top-dose-only effect, or another doubt; inactive = no such curve, though single readings can be large or run the other way;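 note: the enzyme is Sfp with the accession as filed and its product quenches rhodamine fluorescence; potency is the fitted concentration of half-maximal effect; 0% = enzyme reaction without inhibitor and -100% = no enzyme wells; top concentration of the series not given in the record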
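Sfp 15 nM + cpd, 15 min RT; start w/ rhodamine-CoA 5 uM, BHQ-2-YbbR 12.5 uM (final); 50 mM Hepes pH 7.6, 10 mM MgCl2, 0.01% NP-40, 0.01% BSA; read 525/598 nm at 0 and 30 min.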
gsp agonist – qHTS for Agonist of gsp, the Etiologic Mutation Responsible for Fibrous Dysplasia/McCune-Albright Syndrome: qHTS; gsp mutant cells, cAMP HTRF, 30 min; control for the full effect not named in the record; Potency, µM (series often up to 76.9 µM), for the others: at the top dose activation (cAMP increase), usual class: activators; hit rate 0.13% among 340,000; active = well fitted activation curve with a large enough effect; inconclusive = small, poorly fitted or top-dose-only effect, or another doubt; inactive = no such curve, though single readings can be large or run the other way; cell line not stated here;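 note: phosphodiesterase inhibitor Ro 20-1724 added with compounds to block cAMP breakdown; potency is the fitted concentration of half-maximal effect; nearly all actives have a fitted effect of over 60% in size; about a fifth of the inactives were tested at one dose only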
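Cells in DMEM/10% FBS with G418 were pretreated with compounds in DMSO plus […] (300 uM stock) for 30 min at 37C. cAMP was measured by HTRF (cAMP-d2 plus anti-cAMP antibody-K) after 30 min at room temperature.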
gsp antagonist – qHTS for Antagonists of gsp, the Etiologic Mutation Responsible for Fibrous Dysplasia/McCune-Albright Syndrome: qHTS; gsp-mutant cells, cAMP HTRF, 30 min; control for the full effect not named in the record; Potency, µM (doses to about 76.9 µM), inactives show at the highest dose activity change, negative = inhibition, most hits filed as inhibitors; hit rate 0.4% among 340,000; AID 624288, 2012; active = falling curve of any shape with a large fitted effect; inconclusive = falling curve, mostly with a smaller effect; inactive = flat or rising curve; cell line not stated here;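 note: intracellular cAMP measured with PDE inhibitor Ro 20-1724 present during compound exposure; potency is the fitted concentration of half-maximal effect; % is set by controls: 0 for no effect and ±100 for the full control effect; nearly all actives have a fitted effect of over 65% in size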
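Cells in G418 medium, seeded 16-24 h, 37C; buffer exchange to DPBS + 1 mM CaCl2, 0.5 mM MgCl2, 0.05% BSA; cpds in DMSO + […] (300 uM stock), 30 min 37C; HTRF cAMP detection.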
ClpP mod – qHTS Assay for Activators of ClpP; ATP-dependent Clp protease proteolytic subunit (Bacillus subtilis (strain 168)), P80244; purified B. subtilis ClpP, FRET peptide cleavage, 20 min; Potency, µM (highest dose often 57.5 µM), for the others: top-dose activity change, negative = active; hit rate 1.9% among 340,000; active = well fitted falling curve with a large enough effect; inconclusive = small, poorly fitted or top-dose-only effect; inactive = no such curve, though single readings can be large or run the other way; note: potency is the fitted concentration of half-maximal effect; the source files actives as falling curves though it sought activators and does not explain the sign; nearly all actives have a fitted effect of over 65% in size; many hits overshoot -100%
Target sequence (P80244 whole entry, looked up): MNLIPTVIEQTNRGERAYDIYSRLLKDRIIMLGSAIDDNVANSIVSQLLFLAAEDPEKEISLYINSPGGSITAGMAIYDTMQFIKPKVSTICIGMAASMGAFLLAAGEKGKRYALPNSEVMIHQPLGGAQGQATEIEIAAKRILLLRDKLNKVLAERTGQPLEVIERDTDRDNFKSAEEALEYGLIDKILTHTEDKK
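ClpP 10 microg/mL final, pH 8 Tris/KCl buffer with BSA, glycerol, Tween-20; compound pinned in; FRET-FV substrate; RT 20 min; Ex320/Em430; ΔFRET vs ADEP 5.8 microM, DMSO, no enzyme.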
Numbers without * were called inactive; u = inconclusive; x = no result given; & = joins results of further samples; [ ] = remark or other dose.

SMILES	TRPV1 potentiator	Menin MLL FP FL	TRPML1 blocker	Sfp PPTase inh	gsp agonist	gsp antagonist	ClpP mod
COc1ccc(NC(=O)COC(=O)CCC2CCCCC2)cc1	x	x	-3	x	-5%	3%	x
O=C(C1=C[C@@H](C2CC2)C[C@@H](OCc2ccc(CO)cc2)O1)N1CCOCC1	u	-2.7	-8	-18%	x	8%	0.9%
Cc1ccc(N(CC(=O)NCc2ccco2)S(=O)(=O)c2ccccc2)cc1	-2	3.5	2	-5%	-25%	-9%	0.2%
c1csc(-c2noc(CN3CCOCC3)n2)c1	12	3.5	-8	-2%	-36%[inhibitor]	11%	x
CCc1cccc(NC(=O)C2CCCN2S(=O)(=O)c2ccc3c(c2)n(C)c(=O)c(=O)n3C)c1 (stereo not drawn)	2	0.1	4&-13	10%	2%	-8%	-14%&-11%
O=C(N1CCCC1)C12CC3CC(CC(C3)C1)C2	2	1.5	28	-13%	3%	-4%	-3.1%
CCCCn1c(N)c(N(C(=O)CSc2nnnn2-c2ccc(C)cc2)C2CCCC2)c(=O)[nH]c1=O	x	x	-20	x	-26%	-9%	-0.2%
COc1ccc(C2CC(c3ccc(Br)cc3)=NN2C(=O)CCC(=O)O)cc1OC (stereo not drawn)	-3	-3.0	5	24%	30%	-19%	x
CCOC(=O)Cc1csc(NC(NC(=O)CC)(C(F)(F)F)C(F)(F)F)n1	4	-0.4	-6	-7%	24%	0%	-1.8%
COc1ccc(-c2noc(CN3CCCCC3)n2)cc1OC	7	1.1	26	23%	-5%	4%	-2.4%
COc1ccc(Br)c(OC)c1C(=O)NC(=O)Nc1c(F)cccc1F	-4	0.0	x	6%	-57%[inhibitor]	-5%	0.2%
CC(C)N1CCN(Cc2ccoc2)CC1CCO (stereo not drawn)	23	-5.3	-15	-22%	-26%	9%	x
CC(C)(O)c1cc2ccccc2c(=O)o1	x	x	-13	x	-6%	10%	-13%
COc1ccc2cc3cc(C(=O)NCCc4ccc(OC)c(OC)c4)oc3nc2c1	10	3.7	23	-6%	-35%[inhibitor]	-9%	u
O=C(C(=O)N1CCCc2ccccc21)c1c[nH]c2ccccc12	x	-0.9	-19	-5%	-3%	3%	-0.9%
Cc1cccc(C(=O)NC(NCc2ccco2)C(Cl)(Cl)Cl)c1 (stereo not drawn)	9	-0.6	-19	13%	4%	-2%	1.1%
CN(CCCCCCCCCCN(C)C(=O)Oc1cccc([N+](C)(C)C)c1)C(=O)Oc1cccc([N+](C)(C)C)c1	15	x	6	x	x	1%	-0.4%
CC(C)NC(=O)NC(=O)COC(=O)c1cc(S(=O)(=O)N2CCCCC2)ccc1N1CCOCC1	-7	x	-12	15%	16%	-2%	0.4%
COC1CCCCC1Nc1cccc(SC)c1 (stereo not drawn)	-16	-4.8	5	-3%	-28%	0%	-0.6%
CC(CCc1ccccc1)NC(=O)C1CCN(S(=O)(=O)N2CCOCC2)CC1 (stereo not drawn)	-8	2.4	0	0%	-4%	2%	-1.2%
CCCCCCC(=O)N/N=C/c1ccco1	-1	1.4	-2	9%	-36%[inhibitor]	15%	1.8%
CCOc1ccc2nc(NC(=O)CN3C(=O)C4CCCCC4C3=O)sc2c1 (stereo not drawn)	-14	x	6	x	23%[15.4 µM]	1%	x
CCN1CCN(C(=O)C2CC(=O)N(c3ccc(Cl)cc3)C2)CC1 (stereo not drawn)	6	0.6	18	10%	5%	10%	x
CCOc1ccc(N2CC(C(=O)Nc3cc(Cl)ccc3-n3cncn3)CC2=O)cc1 (stereo not drawn)	-41	x	64	x	-78%[inhibitor]	0%	-0.7%
O=C(CS(=O)(=O)c1cccc(C(F)(F)F)c1)Nc1ccccc1Cl	-15	8.8	18	24%	6%	-7%	-0.1%
Cc1ccc(NC(=O)CN(C)C(=O)c2cccc(S(=O)(=O)N3CCc4ccccc43)c2)cc1	2	x	6	x	12%	-27%	0.6%
N#C/C(=C/c1ccc(O)cc1)C(=O)NCc1ccc(Cl)cc1	0	0.3	-12	14%	0%[15.4 µM]	-4%	x
CCOc1ccc(CN(CCO)CCO)cc1[N+](=O)[O-]	17	0.2	-18	16%	u	9%	0.6%
O=C(Nc1ccc(-c2nc3ncccc3o2)cc1)c1ccco1	-1	7.2	-4	19%	16%	-2%	28µM*
COc1c(N2CCNC(C)C2)c(F)cc2c(=O)c(C(=O)O)cn(C3CC3)c12 (stereo not drawn)	x	3.7	x	-18%	x	x	4.8%
COc1ccc(NC(=O)CCC(=O)c2cccs2)cc1S(=O)(=O)Nc1ccccc1Cl	2	-0.3	20	0%	4%	-11%	0.7%
Cc1ccccc1S(=O)Cc1ccc(C(=O)NCCCN2CCCCC2)o1 (stereo not drawn)	26	x	10	5%	0%	20%	0.8%
COc1ccc(N(CC(=O)NCC2CCCO2)C(=O)CCC(=O)Nc2nccs2)cc1 (stereo not drawn)	x	x	3	x	-2%[15.4 µM]	6%	-0.6%
COC(=O)/C(C#N)=C/c1c(Oc2cc(C)cc(C)c2)nc2ccccn2c1=O	u	-2.2	5	11%	-5%	-6%	-5.4%
COc1ccc(CCNc2ccc(C(CC(N)=O)NC(=O)Cc3ccc(Br)cc3)cc2[N+](=O)[O-])cc1 (stereo not drawn)	-5	1.6	-20	-15%	-36%[inhibitor]	1%	0.2%
CC(C)C[C@H](NC(=O)c1[nH]cnc1C(=O)N[C@@H](Cc1ccccc1)C(=O)OC(C)(C)C)C(=O)OCc1ccccc1	28	-2.5	2	20%	0%	1%	1.1%
CC(=O)Nc1ccc(-c2csc(Nc3ncccn3)n2)cc1	-7	2.9	5	15%	5%	11%	0.1%
O=C(O)c1cccc(S(=O)(=O)Nc2cccc(S(=O)(=O)N3CCCCCC3)c2)c1	4	0.3	4	7%	u	4%	x
COc1ccc(C)cc1NC(=O)COC(=O)Cc1c[nH]c2ccccc12	x	x	-5	x	-100%[inhibitor]	x	1.1%
O=C(NCc1ccccc1)C1=C[C@H](C2CCCCC2)C[C@H](OCCCCO)O1	x	x	0	x	-17%	-13%	-0.9%
CN1CCN(C(=O)CCN2C(=O)/C(=C\c3ccc(F)cc3)SC2=S)CC1	x	x	-3	x	2%[15.4 µM]	8%	1.8%
Cc1ccc(NC(=O)CCC(=O)NNC(=O)CCc2ccccc2)c(C)c1	4	7.1	19	3%	4%[15.4 µM]	-11%	-9.6%
N#Cc1ccc(COC(=O)CN2C(=O)NC3(CCCC3)C2=O)cc1	u	x	-10	x	-1%[15.4 µM]	5%	-1.3%
O=S(=O)(Cc1ccccc1Cl)N1CCN(Cc2ccc3c(c2)OCO3)CC1	-18	0.1	-6	-7%	-7%	-23%	-0.6%
CN(C)CCCN(Cc1ccccc1)C(=S)Nc1ccc(OC(F)F)cc1	12	3.5	-8	10%	-5%	13%	-3.2%
CC(C)NC(=O)C(=O)Nc1ccc2c(c1)N(S(=O)(=O)c1cccs1)CCC2	-6	x	16	x	-11%	-12%	0.6%
CCN1C(=O)/C(=C\N(C(C)=O)c2ccccc2)OC1=S	-6	12	11	-11%	u	8%	-0.2%
COc1ccc(C2C(C#N)=C(N)Oc3c2sc2nc(C)cc(C)c32)cc1 (stereo not drawn)	-17	3.1	77	9%	11%	2%	28µM*
C=CCNC(=S)N/N=C/c1ccc(N(CC)Cc2ccccc2)cc1	2	5.2	-10	21%	6%	3%	8.9µM*
COc1ccc(OC)c(C(C)NC(=O)C23CC4CC(CC(C4)C2)C3)c1 (stereo not drawn)	-27	-2.0	1	6%	1%	-9%	-3.2%
(list continues)
SMILES	TRPV1 potentiator	Menin MLL FP FL	TRPML1 blocker	Sfp PPTase inh	gsp agonist	gsp antagonist	ClpP mod
Cc1ccc(NC(=S)NCCC(c2ccccc2)c2ccccc2)c(C)c1	3	5.6	13	17%	u	-24%	-3.0%
CC(=O)Nc1ccc(/C=N\NC(=O)CNS(=O)(=O)c2ccc([N+](=O)[O-])cc2)cc1	7	-1.8	-13	14%	7%	3%	1.7%
CCOC(=O)c1ccc(NC(=O)c2ccco2)cc1	-6	2.8	x	17%	8%	-17%	-0.7%
CN1CC(=O)Nc2ccccc2C1=O	-16	2.4	7	8%	25%	4%	1.8%
O=C(COC(=O)c1ccc([N+](=O)[O-])o1)Nc1cccc2ccccc12	-2	-0.3	12	-14%	-1%	-6%	x
CCOC(=O)NC1(C(F)(F)F)C(=O)N(Cc2ccccn2)C2=C1C(=O)CC(C)(C)C2 (stereo not drawn)	0	3.6	-4	13%	0%	-1%	-1.0%
O=C(c1cccs1)N1CCC(c2nc3c(nnn3Cc3ccccc3)c(=O)[nH]2)CC1	14	-0.1	11	11%	-42%[inhibitor]	0%	-2.2%
Cc1[nH]ccc(=O)c1OCc1ccccc1	-3	12	-3	2%	-60%[inhibitor]	-2%	-11%
O=C(O)CC1(CC(=O)N2CCC(C(=O)O)CC2)CCCC1	-9	1.4	-20	-2%	13%	3%	x
CCC(=O)Nc1nnc(SCC(=O)Nc2ccc3c(c2)OCCO3)s1	-9	x	-9	4%	-9%[15.4 µM]	-4%	1.8%
Cc1cc(C)nc(NN=CC2=C(N3CCOCC3)/C(=C/c3ccc(Cl)cc3)CC2)n1	x	x	-2	x	u	-19%	x
O=C(Cn1cc(C(F)(F)F)cc(Cl)c1=O)NCc1ccc(Cl)cc1	7	-5.5	-5	6%	-15%[15.4 µM]	12%	x

Screens deposited in PubChem by National Center for Advancing Translational Sciences (NCATS).

Not a hit list (roughly 4.9% active in at least one column).
